# GALR2 ag: agonists of human galanin receptor 2 (GALR2) | AID 803 | GALR2-expressing cells, agonist activation read-out | 140,000 compounds, 0.48% hits | O43603 | activation, %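 (tested at 5 µM)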;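 active = above mean plus 3 SD of all compounds, about 5% in these data, not always enough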;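 note: 0% = vehicle buffer wells and 100% = reference agonist at full effect; tested in CHO reporter cells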
# Target sequence (O43603 whole entry, looked up): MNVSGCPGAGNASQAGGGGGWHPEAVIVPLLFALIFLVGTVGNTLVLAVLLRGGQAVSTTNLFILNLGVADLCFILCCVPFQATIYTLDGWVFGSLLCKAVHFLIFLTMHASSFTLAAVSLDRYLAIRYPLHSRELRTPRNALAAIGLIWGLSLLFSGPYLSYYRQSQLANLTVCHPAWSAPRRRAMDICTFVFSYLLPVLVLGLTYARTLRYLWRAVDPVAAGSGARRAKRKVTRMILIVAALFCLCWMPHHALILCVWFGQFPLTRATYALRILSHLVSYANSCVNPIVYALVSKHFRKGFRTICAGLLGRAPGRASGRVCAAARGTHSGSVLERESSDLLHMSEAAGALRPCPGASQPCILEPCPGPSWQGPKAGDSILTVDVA
# PKD1 inh: PKD1 (human) kinase inhibition. PKD1 kinase fluorescence polarization assay. inhibition, %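 (about 10 µM by stock and volumes)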. 200,000 compounds, 0.056% hits. AID 797;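 active = inhibition of 50% or more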;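 note: controls were vehicle for no effect and a reference inhibitor for full effect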
# RGS16-Gao HTS: modulates binding between human RGS16 and Galphao; AID 1441; bead-based flow cytometry RGS16-Galphao binding, fluorescence; actives lie on both sides; binding response (% of control), % at 10 µM; 220,000 compounds, 0.38% hits; O15492+P09471;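 active = below 25% or above 175%, edge rows of some plates excepted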;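 note: Galphao activated by GDP with aluminum fluoride before binding; 100% = wells without compound and 0% = beads without RGS; some results beyond the cut were filed as inactive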
# Target sequence (O15492 whole entry, looked up): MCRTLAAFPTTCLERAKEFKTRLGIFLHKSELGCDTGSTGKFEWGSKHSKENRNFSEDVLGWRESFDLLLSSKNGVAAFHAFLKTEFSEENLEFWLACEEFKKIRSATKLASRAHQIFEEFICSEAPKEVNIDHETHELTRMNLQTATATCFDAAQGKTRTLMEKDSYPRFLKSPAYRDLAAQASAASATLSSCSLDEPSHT
# Target sequence (P09471 whole entry, looked up): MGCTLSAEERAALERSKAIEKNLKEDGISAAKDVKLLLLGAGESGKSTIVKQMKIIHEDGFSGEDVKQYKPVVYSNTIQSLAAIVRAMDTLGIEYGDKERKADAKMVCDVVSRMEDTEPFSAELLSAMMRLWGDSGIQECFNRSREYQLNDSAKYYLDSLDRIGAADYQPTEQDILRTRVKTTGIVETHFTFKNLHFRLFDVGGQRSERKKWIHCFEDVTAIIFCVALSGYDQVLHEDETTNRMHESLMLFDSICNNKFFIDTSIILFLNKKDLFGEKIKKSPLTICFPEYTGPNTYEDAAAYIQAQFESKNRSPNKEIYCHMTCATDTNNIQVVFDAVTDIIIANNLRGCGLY
# HSV augment: increases HSV replication in cells | HSV replication augmentation in cells, fold increase | maximum fold increase | 220,000 compounds, 0.005% hits;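 active = peak rise of 1.5-fold or more in the series; tested in PC3 cells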;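 note: first round at 10 µM; read as green reporter fluorescence; hits show the peak of a series up to 25 µM; 1 = signal of infected wells without compound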
# INS promoter inh: TRM-6 insulin promoter activity inhibition; TRM-6 cells (human fetal islet line), insulin promoter-eGFP reporter, imaging; reporter expression induced with tamoxifen; inhibition, % at 2 µM; 130,000 compounds, 0.9% hits; AID 1273;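 active = inhibition above the mean plus 3 SD, with well images judged a real hit on visual review, cut at about 60% in these data, passing the limit was not always enough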
# INS promoter inh cell count: recorded beside INS promoter inh, whose call it bears; normalized cell count, %; measured here: cell count, toxicity; reference of the scale not given here;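 cells exposed to compound for 48 h; stained nuclei by imaging scaled within each plate; lower means fewer cells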
# HSV augment primary fold: recorded beside HSV augment, whose call it bears; fold increase; compound at 10 µM; measured here: primary screen fold increase 10 uM; tested in PC3 cells;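 GFP signal in the first replicate; 1 = infected wells without compound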
# The depositor's hits bear a star; i = inactive; . = no result given.
SMILES,GALR2 ag,PKD1 inh,RGS16-Gao HTS,HSV augment,HSV augment primary fold,INS promoter inh,INS promoter inh cell count
CCN(CC)S(=O)(=O)c1cccc(C(=O)NC(C(=O)Nc2nnc(C3CC3)s2)C(C)C)c1 (stereo not given),0.9,11,98,i,1.1,.,.
O=C(CN(Cc1ccccc1)S(=O)(=O)c1ccc(Br)cc1)NCc1ccco1,-1.5,7,93,i,1.1,-70,120
COc1cc(NC(=O)Cn2ncc3c2-c2ccccc2OC3)cc(OC)c1OC,-2.6,-4,109,i,1,.,.
COc1ccc(-c2cnnc(N/N=C/c3ccc(OC)c(OC)c3)n2)cc1,-0.2,2,34,i,1,.,.
CCOC(=O)c1c(C)[nH]c(C(=O)COC(=O)C2CC2C)c1C (stereo not given),-1.0,-7,105,i,0.84,.,.
CN(C)CC1CCCCC1OC(=O)/C=C/c1ccc(Cl)cc1Cl (stereo not given),.,0,103,i,0.9,36,133
O=C(NCCN1CCN(c2ccccc2)CC1)C1CCN(S(=O)(=O)c2cccs2)CC1,-2.2,-6,115,i,0.99,24,115
Cc1cc(C)n(-c2ccc(C(=O)O)cc2[N+](=O)[O-])n1,.,-10,86,i,0.99,56,85
Oc1ccccc1C1OCC2(CO1)COC(c1ccccc1O)OC2 (stereo not given),-0.3,5,82,i,1,-41,59
CCCS(=O)(=O)N1CCC(C(=O)NCCc2ccccc2)CC1,-1.2,-11,102,i,0.99,.,.
Cc1ccnc(SCCn2c(N3CCOCC3)nc3c2c(=O)[nH]c(=O)n3C)n1,-0.2,-9,.,i,0.86,-19,76
Cc1cccc(C(=O)NCC(=O)Nc2ccc(S(=O)(=O)Nc3nc(C)cc(C)n3)cc2)c1,.,-2,96,i,0.98,36,88
CCN1C(=O)S/C(=C/c2cn(C)c3ccccc23)C1=O,-2.3,-7,100,i,1,-31,76
CCOC(=O)c1c(-c2ccccc2)csc1NC(=O)c1ccc(S(=O)(=O)N2CCOCC2)cc1,-0.8,4,97,i,1,-23,86
Cc1cc(C)c(C#N)c(SCCS(=O)(=O)Cc2ccc(Cl)cc2)n1,-2.7,-8,96,i,0.76,49,105
O=C(Nc1ccc(N2CCOCC2)cc1)Nc1cnsn1,-0.7,5,85,i,0.95,-11,56
O=C(NCc1ccccc1)c1ccc(S(=O)(=O)Nc2cccc(C(F)(F)F)c2)cc1,.,.,81,i,0.83,.,.
COc1ccccc1C(=O)OCC(=O)Nc1ccc(OC(F)F)cc1,-0.9,-1,100,i,0.99,36,87
Cc1ccc(S(=O)(=O)Nc2ccccc2CNc2cccc(C)n2)cc1,-1.1,-4,104,i,1.2,.,.
CN(Cc1cc2ccccc2[nH]c1=O)C(=O)COc1ccccc1,.,.,95,i,1,.,.
O=C(CSc1nnc(Cc2cccs2)n1-c1ccccc1)Nc1ccc2c(c1)OCCO2,-1.8,-8,104,i,0.93,-72,96
Cn1c(CC(=O)c2ccc(Br)cc2)[n+](C)c2ccccc21,.,2,107,i,0.94,.,.
CCCNC(=O)OCCC12CC3CC(CC(C3)C1)C2,0.7,-10,101,.,.,69*,115*
O=[n+]1cc(-c2ccc(Br)cc2)n([O-])c2c1CCC2,-1.1,-12,108,i,0.97,-47,84
Cn1c(N/N=C2\CCCc3ccccc32)nc2c1c(=O)n(Cc1ccccc1)c(=O)n2C,-1.1,-9,113,i,0.9,.,.
# Next section:
SMILES,GALR2 ag,PKD1 inh,RGS16-Gao HTS,HSV augment,HSV augment primary fold,INS promoter inh,INS promoter inh cell count
CCOC(=O)CCCNC(=O)COC(=O)c1cccc(F)c1,.,-4,101,i,0.98,-57,72
O=C(OCCCN=C1NS(=O)(=O)c2ccccc21)C1CC(=O)N(c2ccc(Cl)cc2)C1 (stereo not given),0.1,-4,97,i,1,-100,111
COCc1cc(C)c(C#N)c(=S)[nH]1,-1.9,-6,87,i,0.92,7,62
CCC(=O)n1nc(-c2cccnc2)nc1NCc1ccccc1,.,5,96,i,1,.,.
O=C(CCS(=O)(=O)c1cccs1)Nc1ccc(C(=O)NC2CCN(Cc3ccccc3)CC2)cc1,.,-5,98,i,0.78,.,.
Cc1ccc(NC(=S)NN2CCN(C)CC2)cc1,-0.5,1,114,i,1.1,4,88
O=C(Oc1ccc(C(=S)N2CCOCC2)cc1)c1ccc(Br)cc1,1.1,-6,115,i,0.97,41,53
CCN(CC)c1ccc2c(C)c(CO)c(=O)oc2c1,.,2,101,i,0.95,.,.
CCOC(=O)CSc1nnc(-c2nnc(SCC(=O)OCC)n2CC)n1CC,-2.6,-4,109,i,0.78,.,.
Cc1cc(C)n2nc(-c3cnn(C)c3C(F)(F)F)cc2n1,-1.5,0,111,i,0.82,-11,130
CC1=NNC(=O)C1CCC(=O)N/N=C(\C)c1ccc(Cl)cc1 (stereo not given),.,.,100,i,0.89,.,.
Cc1cc(C)n2c(Br)c(CSc3nc4ccccc4s3)nc2n1,0.4,-4,103,i,1,31,96
COc1ccc(C(C2C(=O)CC(C)(C)CC2=O)C2C(=O)CC(C)(C)CC2=O)cc1COCC(F)(F)F,-1.7,-6,107,i,1,46,90
Cc1ccc(S(=O)(=O)NC(=O)c2ccccc2)cc1C(C)C,.,-11,100,i,0.92,-13,138
O=c1nc(SCc2c(F)cccc2Cl)nc(-c2ccc(Cl)cc2)[nH]1,.,.,106,i,1.1,.,.
COCCn1c(SCC(=O)c2cc(C)n(C)c2C)nc2ccccc2c1=O,.,-4,101,i,1.1,40,124
COC(=O)c1ccc(-c2noc(CN(C)Cc3ccncc3C)n2)cc1,.,-1,100,i,1,.,.
O=C(COc1cccnc1[N+](=O)[O-])N1CCN(S(=O)(=O)c2ccc3ccccc3c2)CC1,-0.7,-10,106,i,0.99,35,84
Cc1ccc(C(=O)NCCSc2ccccc2)cc1S(=O)(=O)Nc1ccccc1,-2.0,-6,107,i,0.91,13,70
CC(=O)N1CCc2cc(NS(=O)(=O)c3cccs3)ccc21,-0.3,-11,112,i,0.95,.,.
COc1ccc(CN(Cc2ccc(C(=O)O)cc2)C(=S)Nc2ccccc2F)cc1OC,.,-1,101,i,0.95,.,.
CCOc1ncccc1C(=O)OCc1cc(=O)oc2c(C)c(C)ccc12,-0.7,-6,95,i,0.94,-19,122
CN(Cc1ccc(-n2cccn2)cc1)C(=O)c1cnn2c1NC(c1ccco1)CC2C(F)(F)F (stereo not given),1.4,0,101,i,1.1,-12,105
Nc1[nH][nH]c(=O)c1N=Nc1cccc(Cl)c1,.,-5,99,i,0.92,.,.
O=C(CSc1nc2ccccc2s1)Nc1ccc2c(c1)OCO2,1.8,0,104,i,0.99,19,105

# Compound profiles, from the list above:
# Cc1ccnc(SCCn2c(N3CCOCC3)nc3c2c(=O)[nH]c(=O)n3C)n1 reads GALR2 ag: -0.2; PKD1 inh: -9; RGS16-Gao HTS: .; HSV augment: i; HSV augment primary fold: 0.86; INS promoter inh: -19; INS promoter inh cell count: 76
# CN(Cc1ccc(-n2cccn2)cc1)C(=O)c1cnn2c1NC(c1ccco1)CC2C(F)(F)F (stereo not given) reads GALR2 ag: 1.4; PKD1 inh: 0; RGS16-Gao HTS: 101; HSV augment: i; HSV augment primary fold: 1.1; INS promoter inh: -12; INS promoter inh cell count: 105

# Going on with the list.
SMILES,GALR2 ag,PKD1 inh,RGS16-Gao HTS,HSV augment,HSV augment primary fold,INS promoter inh,INS promoter inh cell count
COc1cc(OC)c2c(c1O)OC(c1ccccc1)CC2=O (stereo not given),.,0,100,i,0.82,.,.
O=C(Nc1cccs1)Nc1ccc(Br)cc1F,-0.6,-16,102,i,1.1,70*,190*
CCCc1nc2oc3ccccc3c(=O)c2c(=O)n1CCCOC,.,.,106,i,1,.,.
CN(C)NC(=O)c1csnc1-c1c(Cl)cccc1Cl,.,.,102,i,1,.,.
CC1(C)CC(=O)C2=C(C1)Nc1ccccc1NC2c1ccccn1 (stereo not given),-2.4,0,106,i,1.1,14,54
CCN1CCN(c2oc(-c3ccc([N+](=O)[O-])cc3)nc2C#N)CC1,.,.,101,i,0.89,.,.
CC(C)OC(=O)C(NC(=O)c1ccccc1)=C1CCCCC1,-1.1,1,101,i,0.8,.,.
CCCC1(C(=O)OCC)NC(c2ccc(N(C)C)cc2)C2C(=O)N(c3ccc(F)cc3)C(=O)C21 (stereo not given),-3.0,-10,104,i,1,30,98
CCOC(=O)C1CCCN(C(=O)c2cc3ncc(Br)cn3n2)C1 (stereo not given),-1.8,2,97,i,0.99,54,87
CC(c1ccc(F)cc1)n1cc(C(=O)NCCN(C)C)nn1 (stereo not given),.,-1,95,i,0.88,.,.
CCOC(=O)c1c(C)[nH]c(C(=O)N/N=C/c2ccc(Br)cc2)c1C,4.0,10,104,.,.,.,.
O=S(=O)(NCC1CCCO1)c1ccc(S(=O)(=O)N(Cc2ccc(F)cc2)C2CCCCC2)cc1 (stereo not given),-2.3,-9,.,i,0.88,-162,113
O=C(Cc1cccs1)Nc1cccc(-c2ccc3nncn3n2)c1,.,4,105,.,.,23,127
COc1ccc(-n2c(C(C)n3nc(C)c([N+](=O)[O-])c3C)n[nH]c2=S)cc1 (stereo not given),-3.0,3,103,i,0.88,i,55
Cc1nc(N2CCCCC2)sc1C(=O)c1ccc(SCCO)c([N+](=O)[O-])c1,.,1,102,i,0.87,.,.
CC(=O)Nc1ccc(S(=O)(=O)Nc2nnc(CC(C)(C)C)s2)cc1,.,-6,101,i,0.95,-33,62
O=C(N/C(=C\c1ccc(Br)cc1)C(=O)N1CCCC1)c1ccccc1F,.,-3,97,i,0.94,-43,91
CN(Cc1ccno1)C(=O)CC1C(=O)NCCN1CC(c1ccccc1)c1ccccc1 (stereo not given),.,-1,93,i,1,.,.
NC(=O)c1cccc2c3c([nH]c12)CCCC3,-0.2,10,100,i,0.86,-15,96

# An excerpt from further up, as a working copy:
SMILES,GALR2 ag,PKD1 inh,RGS16-Gao HTS,HSV augment,HSV augment primary fold,INS promoter inh,INS promoter inh cell count
O=C(Cc1cccs1)Nc1cccc(-c2ccc3nncn3n2)c1,.,4,105,.,.,23,127
COc1ccc(-n2c(C(C)n3nc(C)c([N+](=O)[O-])c3C)n[nH]c2=S)cc1 (stereo not given),-3.0,3,103,i,0.88,i,55
Cc1nc(N2CCCCC2)sc1C(=O)c1ccc(SCCO)c([N+](=O)[O-])c1,.,1,102,i,0.87,.,.
CC(=O)Nc1ccc(S(=O)(=O)Nc2nnc(CC(C)(C)C)s2)cc1,.,-6,101,i,0.95,-33,62
O=C(N/C(=C\c1ccc(Br)cc1)C(=O)N1CCCC1)c1ccccc1F,.,-3,97,i,0.94,-43,91
CN(Cc1ccno1)C(=O)CC1C(=O)NCCN1CC(c1ccccc1)c1ccccc1 (stereo not given),.,-1,93,i,1,.,.
NC(=O)c1cccc2c3c([nH]c12)CCCC3,-0.2,10,100,i,0.86,-15,96

# A draw from above in order of SMILES length, lowest first:
SMILES,GALR2 ag,PKD1 inh,RGS16-Gao HTS,HSV augment,HSV augment primary fold,INS promoter inh,INS promoter inh cell count
CCOC(=O)CCCNC(=O)COC(=O)c1cccc(F)c1,.,-4,101,i,0.98,-57,72
CCCc1nc2oc3ccccc3c(=O)c2c(=O)n1CCCOC,.,.,106,i,1,.,.
CC(c1ccc(F)cc1)n1cc(C(=O)NCCN(C)C)nn1 (stereo not given),.,-1,95,i,0.88,.,.
CCN1CCN(c2oc(-c3ccc([N+](=O)[O-])cc3)nc2C#N)CC1,.,.,101,i,0.89,.,.
Cc1ccnc(SCCn2c(N3CCOCC3)nc3c2c(=O)[nH]c(=O)n3C)n1,-0.2,-9,.,i,0.86,-19,76
CN(Cc1ccno1)C(=O)CC1C(=O)NCCN1CC(c1ccccc1)c1ccccc1 (stereo not given),.,-1,93,i,1,.,.

# From PubChem BioAssay

# Rows were taken by chance (roughly 1.2% active in at least one column).
